Screening data from PubChem.
GALK inh – blocks human galactokinase activity. AID 1868. P51570. Purified GALK, Kinase-Glo residual ATP luminescence. Potency, µM (highest dose often 57.5 µM), for the others: at the highest dose activity change, negative = inhibition, most hits filed as inhibitors. 0.007% of 270,000 active; also: potency is read from the fitted curve at half-maximal effect
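Human GALK (5 nM) with 35 uM ATP and 100 uM galactose in 20 mM HEPES pH 8.0, 5 mM MgCl2, 60 mM NaCl, 1 mM DTT, 0.01% BSA. After 1 h at room temperature, leftover ATP was read by Kinase-Glo Plus luminescence.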
KCNH2 3.1 block – blocks the human KCNH2 3.1 channel isoform; U2OS KCNH2 3.1, thallium flux FluxOr; stronger effect = lower value; activity change, % (tested at about 1.8 µM); 0.95% of 340,000 active; AID 720553;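 active = maximum activity change below -70%; inconclusive = maximum activity change from -70% to -50%; inactive = maximum activity change above -50%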;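 also: thallium influx rate constant from kinetic fluorescence after stimulation buffer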
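FluxOr-based Tl+ influx in U2OS cells transduced with KCNH2 3.1 virus; rate constants normalized to DMSO controls.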
hERG WT inh – inhibitors of human wildtype KCNH2 potassium channel. U2OS, BacMam KCNH2, thallium flux FluxOr; stronger effect = lower value. activity change, % at 1.84 µM. Q12809. 0.37% of 340,000 active;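 active = maximum activity change below -70%; inconclusive = maximum activity change between -70% and -50%; inactive = maximum activity change above -50%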
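U2OS cells transduced with wild-type KCNH2 virus are loaded with FluxOr dye for 45 min, and thallium flux is measured in kinetic reads before and after stimulation buffer. Rate constants are normalized to DMSO controls.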
Chronic BCR inh – chronic active BCR signaling inhibition; ABC-DLBCL IkBa-CBG/CBR reporter, luminescence ratio, 4 h; Potency, µM (highest dose often 46.1 µM), inactives show at the highest dose ratio change, negative = lower green/red ratio, hits mostly inhibitors; 0.05% of 340,000 active; active = well fitted inhibition curve with a large enough effect in the signal ratio, with a control signal flat, not every such curve was filed as active; inconclusive = small, poorly fitted or top-dose-only effect, or effect the other way, or a change in a side signal; the % refers to the signal ratio;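 also: potency is read from the fitted curve at half-maximal effect; plate controls were basal doxycycline-induced cells for no effect and cells given 10 µM MG132 for full effect; MG132 reads +100%, hits lower the ratio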
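TMD8 ABC-DLBCL cells carrying doxycycline-inducible green luciferase fused to IkappaBalpha plus unfused red luciferase were exposed to compounds (up to 46 uM) for 4 hrs at 37C. Activity came from the overlap-corrected green/red luminescence ratio.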
Giardia killer – kills Giardia lamblia | Giardia lamblia trophozoite viability | activity change, % at 7.66 µM, hits read low | 0.15% of 340,000 active | AID 540267; in the data active = activity change below about -80%; inconclusive = between about -30% and that limit;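 also: parasites exposed to compound for two days anaerobically before the ATP read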
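Trophozoite viability was measured as ATP-dependent luminescence, read 15-30 min after reagent addition. Before that, parasites at 100 cells/well were exposed to compounds for 48 h, anaerobically, at 37 deg C.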
FBPA coupling cs – inhibits coupling enzyme system, counter-screen for aldolase hits; 0.67% of 290,000 active; activity change, negative = inhibition, % at 58.2 µM, hits read low; coupling enzyme system counterscreen, AmpLite Red fluorescence; in the data active = activity change below about -30%
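Counterscreen lacking aldolase: glyceraldehyde-3-phosphate coupling-enzyme reagent preincubated 10 min at RT with compound (at 57.5 uM final), then substrate/coupling system with AmpLite Red added; fluorescence read at 525/598 nm after 20 min RT.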
uPA surface inh – blocks generation of uPA at the cell surface. cell surface uPA generation assay, qHTS. Potency, µM (top dose mostly 38.3 µM), for the others: at the highest dose activity change, negative = inhibition, actives largely listed as inhibitors. 0.31% of 330,000 active; active = well fitted inhibition curve with a large enough effect; inconclusive = small, poorly fitted or top-dose-only effect; inactive = no such curve, though single readings can be large or run the other way; tested in mouse RAW 264.7 cells; also: potency is read from the fitted curve at half-maximal effect; nearly all actives have a fitted effect of over 55% in size
B2AR arrestin – recruits beta-arrestin to the human beta2-adrenergic receptor; beta-arrestin recruitment to beta2AR, cell-based reporter; Potency, µM (series often up to 46.1 µM), inactives show at the top dose activation, usual class: activators; 0.02% of 330,000 active;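 also: potency is read from the fitted curve at half-maximal effect; 0% = DMSO controls and full agonism = EC100 isoproterenol or metaproterenol; nearly all actives have a fitted effect of over 65% in size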
Target sequence (P07550 whole entry, looked up): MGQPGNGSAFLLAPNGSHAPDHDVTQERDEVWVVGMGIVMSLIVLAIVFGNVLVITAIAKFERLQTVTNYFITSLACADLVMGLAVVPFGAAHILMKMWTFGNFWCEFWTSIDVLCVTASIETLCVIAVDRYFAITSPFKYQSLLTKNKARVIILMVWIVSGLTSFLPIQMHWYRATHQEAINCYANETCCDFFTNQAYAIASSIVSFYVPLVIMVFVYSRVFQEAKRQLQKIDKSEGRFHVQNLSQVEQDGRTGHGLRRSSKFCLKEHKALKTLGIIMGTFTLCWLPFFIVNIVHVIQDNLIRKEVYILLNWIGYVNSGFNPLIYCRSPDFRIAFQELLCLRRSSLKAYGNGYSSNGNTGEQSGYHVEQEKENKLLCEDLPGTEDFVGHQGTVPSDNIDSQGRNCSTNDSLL
USP2a block – blocks human ubiquitin-specific protease USP2a; Potency, µM (series often up to 38.3 µM), inactives show at the highest dose activity change, negative = inhibition, hits mostly inhibitors; USP2 core, Ub-CHOP2 coupled fluorogenic reporter, 485/531; O75604; 0.01% of 330,000 active;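 also: potency is read from the fitted curve at half-maximal effect; plate controls were DMSO wells for no effect and full inhibition by NEM control for full effect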
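USP2 core (10nM final) preincubated 30min RT with compound in 20mM Tris-HCl pH 8.0, 2mM CaCl2, 2mM beta-mercaptoethanol, 0.05% CHAPS; 25nM Ub-CHOP2 plus 25nM reporter substrate added, fluorescence (Ex485/Em531) read after 60min.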
Eya2 inh – Eya2 (human) phosphatase inhibition | O00167 | recombinant Eya2, OMFP fluorescence dephosphorylation (OMFP is methylfluorescein phosphate) | Potency, µM (doses to about 76.9 µM), for inactives: at the highest dose activity, negative = inhibition, most hits filed as inhibitors | 0.006% of 330,000 active | AID 488837; also: potency is read from the fitted curve at half-maximal effect
Target sequence (O00167 whole entry, looked up): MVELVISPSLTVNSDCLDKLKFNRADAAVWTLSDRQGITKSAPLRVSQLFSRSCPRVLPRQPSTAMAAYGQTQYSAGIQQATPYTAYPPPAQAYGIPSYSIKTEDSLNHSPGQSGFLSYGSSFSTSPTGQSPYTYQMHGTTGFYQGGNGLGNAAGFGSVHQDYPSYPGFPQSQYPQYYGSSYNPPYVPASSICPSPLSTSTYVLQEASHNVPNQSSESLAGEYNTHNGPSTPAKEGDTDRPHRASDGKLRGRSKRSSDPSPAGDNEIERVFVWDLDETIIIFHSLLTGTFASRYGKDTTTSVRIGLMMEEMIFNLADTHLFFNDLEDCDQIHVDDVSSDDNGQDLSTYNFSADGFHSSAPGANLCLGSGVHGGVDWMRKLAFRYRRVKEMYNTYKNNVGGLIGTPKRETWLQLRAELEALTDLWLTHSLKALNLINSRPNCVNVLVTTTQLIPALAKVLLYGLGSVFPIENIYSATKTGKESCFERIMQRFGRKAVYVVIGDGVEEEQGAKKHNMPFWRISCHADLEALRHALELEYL
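Eya2 protein (added as 0.2 uM solution) was preincubated with compound for 10 min at ambient temperature in 50 mM HEPES pH 7.5, 50 mM NaCl, 5 uM MgCl2, 0.05% BSA, 1 mM DTT. OMFP (added at 50 uM) then reacted 10 min; fluorescence read at 485/525 nm.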
* hit, by the source's call; ? = inconclusive; / = not tested or not shown; & = joins results of further samples. Unless noted, calls follow the shape of the dose curve; as a rule, active = well fitted curve in the direction sought with a large enough effect; inconclusive = small, poorly fitted or top-dose-only effect, or another doubt; inactive = no such curve, though single readings can be large; an effect the other way counts as inactive or inconclusive. Unless noted, % is scaled to controls: 0 for no effect and ±100 for the full control effect. This is a subset; the hit share may differ from the screen's.

SMILES | KCNH2 3.1 block | Giardia killer | B2AR arrestin | uPA surface inh | GALK inh | USP2a block | FBPA coupling cs | Chronic BCR inh | Eya2 inh | hERG WT inh
O=C(CCN1C(=O)C2C3C=CC(C3)C2C1=O)N1CCN(c2ccc([N+](=O)[O-])cc2)CC1 (stereo not given) | -36.7 | -17.9 | 0.1% | -6.5% | 6.5% | 2.9% | 2.1 | 1.3% | 8.7% | 6.7
Cn1c(SCc2ccccc2Cl)nc2ccccc21 | -6.0 | 6.1 | 0.1% | -2.9% | 1.0% | -1.0% | -8.4 | 5.1% | -8.9% | -4.9
COc1ccc(NC(=O)CN2C(=O)COc3ccc(C)cc32)cc1 | 0.3 | 10.3 | -1.8% | 15.0% | 1.8% | -0.6% | 2.8 | ? | 6.3% | -5.4
COC(=O)CC1(c2ccccc2)C(=O)c2ccccc2C1=O | 15.0 | 4.9 | -0.3% | / | 2.2% | 3.1% | 1.7 | -1.7% | -23.1% | -4.8
CC(C)CN1CCN(Cc2ccc3ncccc3c2)CC1CCO (stereo not given) | -1.9 | -4.9 | -0.4% | -7.5% | -1.6% | -0.9% | -1.4 | -2.0% | 4.3% | 4.0
O=C(N/N=C/c1ccncc1)/C(=C/c1ccccc1)NC(=O)c1ccccc1 | 3.2 | 16.3 | 0.0% | -0.5% | -0.2% | 0.0% | -1.5 | -1.1% | -29.3% | -15.1
O=C(COC(=O)/C=C/c1ccccc1[N+](=O)[O-])NC1CCS(=O)(=O)C1 (stereo not given) | 13.4 | -27.0 | 0.2% | -0.4% | 12.1% | 1.7% | -3.7 | 0.0% | 5.8% | -2.4
CC(C)(C)OC(=O)N1CCC[C@H]1C(=O)N/N=C/c1ccc2ncccc2c1 | 14.5 | 7.2 | -1.0% | -2.1% | -1.8% | 0.4% | -1.3 | -29.8% | ? | -0.2
COc1ccc(-c2cc(=O)c3c(OC)c(OC)c(OC)c(OC)c3o2)cc1OC | -1.2 | 9.2 | 0.2%&7.2% | -9.2% | -3.6% | 6.9%&0.5% | -0.6&0.3&-0.7 | ? | 1.1%&1.2% | -2.7
O=C(COC(=O)c1cccnc1SCC(=O)NCc1ccccc1)NCc1ccccc1 | 6.7 | -7.1 | -1.1% | -8.8% | -1.7% | 1.9% | -1.5 | ? | 1.2% | -2.7
COc1ccc(/C=C2\C(=O)OCc3cc(OC)c(OC)cc32)cc1OC | 12.7 | 5.7 | 0.2% | -15.1% | / | 0.7% | -1.4 | ? | -6.3% | 8.1
CCCC(C(=O)NCc1ccco1)N(C(=O)CNS(=O)(=O)c1ccccc1)c1ccccc1OC (stereo not given) | 14.1 | 10.0 | 0.3% | -2.1% | -1.8% | 0.4% | 0.4 | ? | -12.9% | 1.2
COCCNCC1C(Oc2ccc(Cl)cc2)C(=O)N1c1ccccc1C (stereo not given) | 8.8 | 2.3 | 0.1% | 0.6% | 8.1% | 0.7% | 3.1 | ? | 5.8% | 5.8
Cn1c(SCC(=O)c2ccccc2)nnc1-c1cccnc1 | -6.5 | -15.7 | 4.4% | 2.5% | -0.7% | 1.5% | -0.5 | ? | -26.3% | -9.8
Cc1ccc(NC(=S)NN(C)c2cc(C)nc(C)n2)cc1 | -8.7 | 6.8 | -0.6% | -2.2% | 2.5% | 4.3% | 9.6 | 1.8% | 0.1% | -2.5
CCOc1ccc(Oc2ccc(C(F)(F)F)cc2N)cc1 | -17.3 | -11.2 | -1.0% | 3.9% | 0.1% | 1.5% | -1.9 | ? | -8.1% | -15.9
COc1ccc(S(=O)(=O)NC(CC(=O)NCc2ccccc2OC)c2ccco2)cc1 (stereo not given) | -7.9 | -1.1 | -0.1% | 9.1% | -0.1% | -2.6% | 1.3 | 5.5% | -6.8% | 2.7
Nc1cnn(C2OC(CO)C(O)C2O)c(=O)n1 (stereo not given) | -4.7 | -2.5 | -0.4% | / | 4.7% | 1.3% | 3.8 | -1.6% | 6.1% | 7.8
CSCC[C@H](N)C(=O)N1CCC(C(=O)N[C@H](C(=O)NCc2ccccc2F)C(C)C)CC1 | 7.5 | 9.5 | 0.1% | 9.3% | / | 0.1% | -0.1 | -0.8% | -21.3% | -0.3
Cc1ccc(O)c(NC(=O)CSc2n[nH]c(-c3ccccc3)n2)c1 | 11.8 | -2.2 | 0.4% | ? | -5.2% | -0.1% | / | ? | -10.3% | 13.1
COCCCNS(=O)(=O)c1ccc(OC)c(Cl)c1Cl | 5.0 | -4.1 | -2.0% | 6.4% | 0.4% | 0.3% | 1.0 | -4.1% | 15.9% | 6.7
Cc1cc(=O)oc2c(C)c(OCC(=O)N3CCN(c4ccccc4)CC3)ccc12 | 1.8 | -0.2 | 0.4% | 6.2% | 6.8% | -2.0% | -0.5 | -9.4% | 1.1% | 0.5
OCc1ccccc1OCCOc1ccc(Cl)c2cccnc12 | -29.7 | 9.1 | -0.2% | / | 0.2% | 0.7% | -1.8 | -24.7% | 4.8% | -4.1
O=C(NC1=C(Nc2ccc(F)cc2)C(=O)c2ccccc2C1=O)c1ccc(Cl)cc1 | 0.7 | 7.3 | 0.0% | -11.1% | -2.9% | -4.0% | -42.3* | 3.1% | -18.3% | 15.8
Cc1cccn2c(=O)c3cc(C(=O)NC4CCCC4)c(=N)n(Cc4ccc(F)cc4)c3nc12 | -22.6 | -14.0 | -0.9% | 1.3% | -0.3% | 2.8% | -5.2 | -5.3% | 8.5% | -6.9
COc1ccc(Nc2ncnc3c2cnn3Cc2ccccc2)cc1OC | 6.1 | -5.0 | -0.4% | -18.8% | 1.9% | -1.9% | 1.0 | -10.7% | -0.5% | 1.2
O=C(NCc1ccc(F)cc1)C1C2C=CC3(CN(Cc4cccnc4)C(=O)C13)O2 (stereo not given) | 8.0 | 8.2 | 0.0% | / | 2.5% | 0.9% | 4.4 | -0.2% | 5.7% | 20.0
OC1COC(OCc2ccccc2)C(O)C1O (stereo not given) | -6.7 | 3.8 | -0.9% | -0.4% | 5.0% | 1.1% | 3.0 | 13.5% | -28.1% | -2.8
CCC(=O)c1cc2c(C)cc(=O)oc2c(C)c1OC(C)=O | 14.3 | -1.5 | -2.0% | -7.2% | 3.1% | 4.7% | -1.2 | 3.1% | 8.0% | -4.5
CCOC(=O)N1CCN(C(=O)c2cccc(OC)c2O)CC1 | -5.5 | -5.3 | 0.1% | -1.3% | 1.0% | -0.2% | -20.4 | -11.8% | -11.3% | 4.4
Cc1ccc(-c2nnc(Nc3ccccc3)o2)cc1 | 2.4 | ? | 0.4% | ? | 5.9% | 0.1% | -3.0 | ? | -8.5% | -8.2
CN(c1ccccc1)S(=O)(=O)c1ccc(NC(=O)c2cccs2)cc1 | -7.7 | 8.9 | -0.3% | 7.7% | -0.7% | 2.5% | -0.1 | -0.7% | 6.3% | -1.3
COC(=O)c1ccc(NC(=O)c2cccc(OC)c2)cc1 | 8.5 | -8.2 | -0.8% | 1.2% | 2.7% | -7.0% | 5.9 | ? | 0.0% | -5.2
CC(C)N(Cc1cn(C)nc1-c1cccc(Cl)c1)Cc1nccn1C | -2.0 | 18.5 | 0.0% | -0.8% | 0.3% | -0.9% | -0.8 | -17.9% | 9.0% | -3.0
O=C(COC(=O)C1CCCC1)NCc1ccc(Cl)cc1 | -11.2 | 18.4 | -0.3% | 1.6% | -1.0% | 5.3% | 3.6 | 3.0% | -3.6% | 2.2
CCOc1ccc(/C=N/NC(=O)C2CC2)cc1OC | -5.6 | -5.6 | 1.8% | 1.8% | -0.4% | 1.7% | -0.5 | 3.8% | -0.2% | 13.5
NC(=O)c1ccc(NC(=O)COC(=O)c2ccc([N+](=O)[O-])cc2)cc1 | -1.8 | 11.0 | 0.8% | 0.9% | -1.8% | -0.5% | 1.8 | 0.3% | -2.6% | -12.8
CCC1Cc2c(nc(N)c3c(N)nc(N4CCOCC4)c(C#N)c23)O1 (stereo not given) | 0.4 | -6.9 | -0.2% | -8.2% | 6.7% | 1.6% | -22.0 | ? | 1.1% | -6.0
CC(=O)c1ccc(NS(=O)(=O)c2cc3c(cc2C)N(C)CCO3)cc1 | -7.1 | -19.0 | 0.0% | -26.0% | -0.5% | 0.6% | -2.7 | -4.6% | -1.9% | -11.2
COc1ccc(-c2nn(-c3ccccc3)cc2/C=N/Nc2ccc(S(N)(=O)=O)cc2[N+](=O)[O-])cc1OC | -5.9 | -21.3 | 0.4% | -4.3% | 0.0% | 1.1% | 0.4 | ? | 1.0% | -9.0
COc1ccc(NC(=O)c2ccc(NCCCN3CCOCC3)c([N+](=O)[O-])c2)cc1 | -21.7 | 25.4 | 0.2% | -5.0% | -4.2% | 1.7% | 3.2 | ? | -1.1% | 25.6
CC(Cc1cccnc1)NC(=O)c1cc(COc2ccc(F)cc2F)on1 (stereo not given) | 4.5 | 0.6 | -0.1% | -2.7% | -3.5% | 0.0% | / | -7.5% | 4.4% | -9.4
